Screens: PubChem, National Center for Advancing Translational Sciences (NCATS)
miR-21 reporter: qHTS Assay for Modulators of miRNAs and/orActivators of miR-21; Potency, µM (titrated, usually from 38.3 µM), without a hit: at the highest dose reporter change, positive = more light; HeLa miR-21 FLuc reporter, luciferase, 48 h; 340,000 tested, under 10 active; active = well fitted rising curve with a large enough effect; inconclusive = small, poorly fitted or top-dose-only effect; inactive = no such curve, though single readings can be large or run the other way;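 also: % of control where 0% means no effect; miR-21 action dims this reporter so a rising signal means less miR-21 action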
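HeLa cells endogenously expressing miR-21, stably carrying CMV-driven firefly luciferase with a downstream miR-21 binding site, 2000 cells/well. Titrations up to approximately 40 uM, 48 hours; luciferase luminescence read.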
An asterisk follows results filed as active. Only part of the results is shown (hit frequency here may not be typical).

For CS(=O)(=O)N(CC(=O)Nc1ccc(Br)cc1)c1ccccc1Br the results were miR-21 reporter 2%.
`CCN(C(=O)Nc1cn(CC(C)C)c(=O)c2ccccc12)c1cc(C)ccc1C` gave miR-21 reporter 6%.
CC(=O)Nc1ccc(C)cc1-c1nc2ccccc2n(Cc2cccc(Br)c2)c1=O was read as miR-21 reporter -3%.
Screening COc1ccccc1N1CCN(C(=O)c2cc3ccc4ccc(C)[nH]c4c3n2)CC1 returned miR-21 reporter 11%.
Cc1cc(O)c(C(c2ccccc2)N2CCN(c3ccccc3)CC2)c(=O)n1Cc1ccco1 (centres undefined) was read as miR-21 reporter 2%.
COc1ccc(-c2cc(C(=O)Nc3c(C(=O)c4ccc(C)cc4)oc4ccccc34)no2)cc1 was read as miR-21 reporter -8%.
Screening COc1ccc(NC(=O)c2ccco2)cc1NC(=O)COc1ccc(C)cc1C returned miR-21 reporter -4%.
Screening Cc1cccc(Cn2c(C)c(C)c3cc(C(=O)NCc4ccco4)ccc32)c1 returned miR-21 reporter 12%.
`Cc1ccc(Cn2c(CNC(=O)CCc3ccccc3)nc3cccnc32)cc1` gave miR-21 reporter -2%.
`CCCNC(=O)CCc1nnc2ccc(N3CCN(c4cccc(OC)c4)CC3)nn12` gave miR-21 reporter 5%.
For Cc1c(C(=O)N(C)C)sc2c1c(=O)n(-c1ccc(Cl)c(Cl)c1)c(=O)n2CC(=O)Nc1ccc(Br)cc1F the results were miR-21 reporter 9%.
`CCc1ccc(NC(=O)CCCc2nnc3n(CCCOC)c(=O)c4sccc4n23)cc1` gave miR-21 reporter -3%.
For Cc1cccc(Cn2c(-c3ccccc3)nc3ccccc32)c1 the results were miR-21 reporter 11%.
`Cc1cn2c(=O)cc(COc3ccc(C(C)(C)C)cc3)nc2s1` gave miR-21 reporter -6%.
Screening CC(C)NC(=O)Cc1csc2nc(-c3ccccc3)cn12 returned miR-21 reporter 0%.
Screening CC1=Nc2cc(C(=O)NCc3ccccc3Cl)ccc2Sc2c(C)ccc(C)c21 returned miR-21 reporter 28%.
`CCN(CC)C(=O)c1ccccc1NC(=O)c1cccc(S(=O)(=O)N2CCC(C)CC2)c1` gave miR-21 reporter -4%.
Screening CCOc1ccc(Nc2ncnc3scc(-c4ccc(OC)cc4)c23)cc1 returned miR-21 reporter -13%.
Screening Cc1ccc(C(=O)Nc2nnc(S(=O)(=O)N3CCc4ccccc43)s2)cc1 returned miR-21 reporter -1%.
COC(=O)C(C)Sc1ncnc2c1c(-c1ccccc1)cn2-c1ccc(F)cc1 (centres undefined) was read as miR-21 reporter -29%.
Cc1cc(C)cc(NC(=O)CSc2nnc(COc3ccccc3Cl)o2)c1 was read as miR-21 reporter -22%.
`COc1ccc(Cl)cc1NC(=O)c1cc2c(s1)-c1ccccc1OC2` gave miR-21 reporter -6%.
`COc1ccc(OCCn2c(C3CC(=O)N(c4ccc(F)cc4)C3)nc3ccccc32)cc1` (centres undefined) gave miR-21 reporter 15%.
Screening CC(C)c1ccc(N2C(=O)N(Cc3cccc([N+](=O)[O-])c3)c3ccccc3S2(=O)=O)cc1 returned miR-21 reporter 12%.
Screening O=C(Cn1c(=O)n(Cc2ccco2)c(=O)c2cccnc21)Nc1ccccc1F returned miR-21 reporter 4%.
For COC(=O)c1ccccc1NC(=O)C1=CC(c2ccc3c(c2)OCO3)=NS(=O)(=O)N1C the results were miR-21 reporter -8%.
For CCOc1ccc(C2c3c(oc4ccc(C)cc4c3=O)C(=O)N2c2nc(C)c(C)s2)cc1OC (centres undefined) the results were miR-21 reporter -6%.
`CCOC(=O)c1ccccc1NC(=O)c1nn(C)c2c1COc1ccccc1-2` gave miR-21 reporter 22%.
`Cc1ccc(Cn2c(=O)c3cccnc3n(CC(=O)Nc3cc(Cl)ccc3C)c2=O)cc1` gave miR-21 reporter 4%.
CCOc1ccc(CCNC(=O)c2cc3c(-c4ccc(OC)c(OC)c4)nn(C)c3s2)cc1OCC was read as miR-21 reporter 28%.
CCOC(=O)c1cc2c(=O)n3ccccc3nc2n(CC2CCCO2)c1=NC(=O)c1ccc(OCC)cc1 (centres undefined) was read as miR-21 reporter 12%.
`CCCN(CCC)S(=O)(=O)c1ccc2c(c1)N(CC(=O)NC(C)c1ccccc1)C(=O)CS2` (centres undefined) gave miR-21 reporter 10%.
Screening COc1cccc(-c2cn3c(n2)sc2cc(C(=O)NC4CCCCCC4)ccc23)c1 returned miR-21 reporter 0%.
For CC(C)NC(=O)c1ccc2c(c1)N(Cc1cccc(Cl)c1)C(=O)c1ccccc1S2=O (centres undefined) the results were miR-21 reporter -7%.
For CC(=O)c1cccc(-n2c(=O)c3c4c(sc3n(CC(=O)c3ccccc3)c2=O)CN(C(C)=O)CC4)c1 the results were miR-21 reporter -3%.
For Cc1nc(-c2cccc(F)c2)sc1CCNC(=O)C(=O)Nc1ccc2c(c1)OCO2 the results were miR-21 reporter -1%.
For Cn1ccc2c(OCC(=O)NCc3ccccc3)cccc2c1=O the results were miR-21 reporter 0%.
Screening Cc1nn(CCCC(=O)NCc2ccccc2)c(=O)c2c1sc1ccccc12 returned miR-21 reporter -50%.
For O=C(CSc1nnc(-c2ccc(O)cc2)o1)c1ccc(Br)cc1 the results were miR-21 reporter 2%.
`COc1ccccc1N1CCN(S(=O)(=O)c2c(C)sc3ncn(CC(=O)Nc4ccccc4F)c(=O)c23)CC1` gave miR-21 reporter -3%.
Screening Cc1c(Cl)cccc1NC(=O)CSc1ncc2c(n1)-c1ccccc1N(C)S2(=O)=O returned miR-21 reporter 10%.
CC(C)c1ccc2oc(-c3cc(NC(=O)c4cccs4)ccc3Cl)nc2c1 was read as miR-21 reporter 11%.
`CN(Cc1ccccc1)c1ccc(-c2nc(-c3ccco3)no2)cc1[N+](=O)[O-]` gave miR-21 reporter 18%.
Cc1nn(-c2nc(-c3ccc(F)cc3)cc(C(F)(F)F)n2)c(C)c1Br was read as miR-21 reporter -1%.
O=C(Cc1cccs1)NC1CC(=O)N(c2cccc(F)c2)C1 (centres undefined) was read as miR-21 reporter 0%.

Ordered by molecular weight (highest first): some entries from above.
`COc1ccccc1N1CCN(S(=O)(=O)c2c(C)sc3ncn(CC(=O)Nc4ccccc4F)c(=O)c23)CC1` gave miR-21 reporter -3%.
CCOc1ccc(CCNC(=O)c2cc3c(-c4ccc(OC)c(OC)c4)nn(C)c3s2)cc1OCC was read as miR-21 reporter 28%.
For CC(=O)c1cccc(-n2c(=O)c3c4c(sc3n(CC(=O)c3ccccc3)c2=O)CN(C(C)=O)CC4)c1 the results were miR-21 reporter -3%.
`CCCN(CCC)S(=O)(=O)c1ccc2c(c1)N(CC(=O)NC(C)c1ccccc1)C(=O)CS2` (centres undefined) gave miR-21 reporter 10%.
Screening Cc1c(Cl)cccc1NC(=O)CSc1ncc2c(n1)-c1ccccc1N(C)S2(=O)=O returned miR-21 reporter 10%.
For CC(C)NC(=O)c1ccc2c(c1)N(Cc1cccc(Cl)c1)C(=O)c1ccccc1S2=O (centres undefined) the results were miR-21 reporter -7%.
`Cc1ccc(Cn2c(=O)c3cccnc3n(CC(=O)Nc3cc(Cl)ccc3C)c2=O)cc1` gave miR-21 reporter 4%.
For Cc1nc(-c2cccc(F)c2)sc1CCNC(=O)C(=O)Nc1ccc2c(c1)OCO2 the results were miR-21 reporter -1%.
Cc1nn(-c2nc(-c3ccc(F)cc3)cc(C(F)(F)F)n2)c(C)c1Br was read as miR-21 reporter -1%.
CC(C)c1ccc2oc(-c3cc(NC(=O)c4cccs4)ccc3Cl)nc2c1 was read as miR-21 reporter 11%.
Screening Cc1nn(CCCC(=O)NCc2ccccc2)c(=O)c2c1sc1ccccc12 returned miR-21 reporter -50%.
`CN(Cc1ccccc1)c1ccc(-c2nc(-c3ccco3)no2)cc1[N+](=O)[O-]` gave miR-21 reporter 18%.
For Cn1ccc2c(OCC(=O)NCc3ccccc3)cccc2c1=O the results were miR-21 reporter 0%.
O=C(Cc1cccs1)NC1CC(=O)N(c2cccc(F)c2)C1 (centres undefined) was read as miR-21 reporter 0%.

(listing goes on)
Screening Cc1cc(C)n(-c2nc3ccccc3nc2Nc2cc(C(=O)O)ccc2C)n1 returned miR-21 reporter 3%.
Screening CN(Cc1ccccc1)c1ccc2cc(S(=O)(=O)N3CCCCC3)ccc2n1 returned miR-21 reporter -1%.
`O=C(CCC(=O)N1CC2CCCN2c2ccccc21)NCc1ccccc1F` (centres undefined) gave miR-21 reporter -3%.
Screening Cc1cccc(N(C)C(=O)C(Cc2ccccc2)NS(=O)(=O)c2cccc3nsnc23)c1 (centres undefined) returned miR-21 reporter 16%.
For CCCCOc1ccc(C(=O)N2CCN(CCc3ccccn3)CC2)cc1 the results were miR-21 reporter -3%.
Cc1cccc(N2CCN(C(=O)CCc3c(C)nc4ncnn4c3C)CC2)c1C was read as miR-21 reporter 7%.
Cc1oc2ccc(O)c(CN3CCCC3)c2c1C(=O)Nc1ccccc1 was read as miR-21 reporter -8%.
For COCCCNc1nc2c(S(=O)(=O)c3ccccc3)nnn2c2ccc(Cl)cc12 the results were miR-21 reporter 3%.
Screening COc1ccc(N2CCN(Cc3nnc(-c4ccc5c(c4)OCO5)o3)CC2)cc1 returned miR-21 reporter -1%.
Screening CCOC(=O)c1c(NC(=O)COc2cccc(C)c2C)sc2c1CCC(CC)C2 (centres undefined) returned miR-21 reporter -8%.
Screening CSc1ccccc1-c1nnc(NC(=O)c2ccc3c(c2)OCCO3)o1 returned miR-21 reporter -8%.
CC(=O)N1CCc2cc(Br)cc(S(=O)(=O)N3CCN(c4cc(C)ccc4C)CC3)c21 was read as miR-21 reporter 14%.
Screening O=C(c1ccc(Cl)cc1)n1nc(-c2ccco2)nc1NCc1cccs1 returned miR-21 reporter -12%.
Screening Cc1cc(C)n(-c2nnc(Nc3ccc(C)c(Cl)c3)c3ccccc23)n1 returned miR-21 reporter -3%.
For Cc1cn2c(=O)cc(COc3ccccc3NC(=O)c3ccco3)nc2s1 the results were miR-21 reporter 1%.
Screening COc1ccc(OC)c(NC(=O)CSc2nc(=O)n(CCN(C)C)c3c2CCC3)c1 returned miR-21 reporter -2%.
COc1cc(NC(=O)COCc2cc(-c3ccc(F)cc3)on2)cc(OC)c1OC was read as miR-21 reporter 25%.
For O=C(Nc1cccc(C(F)(F)F)c1)c1noc2c1CCc1ccccc1-2 the results were miR-21 reporter -26%.
Screening Cc1cccc(-c2noc(-c3ccc(NCc4ccccc4)c([N+](=O)[O-])c3)n2)c1 returned miR-21 reporter -16%.
Screening CC(=O)Nc1ccc(Nc2ncnc3sc4c(c23)CCCC4)cc1 returned miR-21 reporter -37%.
`COc1ccc(-c2cc(C(F)(F)F)nc(SCCC(=O)Nc3cccc(O)c3)n2)cc1` gave miR-21 reporter 27%.
For CC(C)(C)OC(=O)N1CCC(c2c(C(=O)N3CCc4ccccc4C3)cnn2-c2ccc(F)cc2)CC1 the results were miR-21 reporter 3%.
Screening COc1cn(CC(=O)Nc2cc(C)ccc2C)c(CN2CCCCC2)cc1=O returned miR-21 reporter 4%.
Screening CC1CCCN(c2nc3c(-c4ccc(Cl)cc4)nnn3c3ccccc23)C1 (centres undefined) returned miR-21 reporter -3%.
For CCNC(=O)c1nn(-c2ccccc2C)nc1CO the results were miR-21 reporter 12%.
Screening CC(C)Cn1c(-c2cccc(Br)c2)nc2ccccc21 returned miR-21 reporter 15%.
`CCOc1ccc(NC(=O)Cn2cc(C(=O)c3ccc(C)c(C)c3)c(=O)c3cc4c(cc32)OCCO4)cc1` gave miR-21 reporter -9%.
COc1ccc(-c2cccc(NS(=O)(=O)c3cc(C)ccc3OC)c2)nn1 was read as miR-21 reporter -1%.
For COc1cccc(CNC(=O)c2c(C)nn(-c3ccc(F)cc3)c2-n2cccc2)c1 the results were miR-21 reporter 9%.
Cc1cc(C)c(NC(=O)c2cc(S(=O)(=O)N3CCCC3)cn2C)c(C)c1 was read as miR-21 reporter 3%.
Screening COc1ccccc1N1CCN(C(=O)CCn2nc(C)c(S(=O)(=O)N3CCCC3)c2C)CC1 returned miR-21 reporter 23%.
Cc1ccc(S(=O)(=O)c2nc(-c3cccc(C)c3)oc2N2CCN(c3ccccc3)CC2)cc1 was read as miR-21 reporter 2%.
For Cc1ccc(-c2noc(CCCC(=O)NCc3ccco3)n2)cc1 the results were miR-21 reporter inconclusive.
For O=C(Cn1c(=O)n(Cc2nc(-c3ccccc3)no2)c(=O)c2cc3c(cc21)OCO3)Nc1ccccc1 the results were miR-21 reporter 7%.
COc1ccc(CNC(=O)CCc2cn(C)c3ccccc23)cc1 was read as miR-21 reporter -2%.
Screening COc1cc(OC)c(NC(=O)c2nnn(Cc3ccc(C)cc3)c2N)cc1Cl returned miR-21 reporter -16%.
For O=C(CN1C(=O)COc2ccc(S(=O)(=O)N3CCCCCC3)cc21)NCCc1ccccc1 the results were miR-21 reporter -4%.
`Cn1nnnc1SCCCNCc1cc(Cl)ccc1OCc1ccccc1F` gave miR-21 reporter 20%.
`O=C(NCCO)c1ccc(-c2nnc(Nc3ccc(OC(F)(F)Cl)cc3)c3ccccc23)cc1` gave miR-21 reporter inconclusive.
For Cc1nn2c(=O)cc(COC(=O)c3cccc(NC(=O)c4ccc(F)cc4)c3)nc2s1 the results were miR-21 reporter -3%.
Screening CCOC(=O)CSc1nc2sc3c(c2c(=O)n1Cc1ccccc1)CC(C(C)C)OC3 (centres undefined) returned miR-21 reporter 0%.
For COc1ccccc1CNC(=O)C1CCN(S(=O)(=O)c2ccc3c(ccn3C)c2)CC1 the results were miR-21 reporter 11%.
For COc1cccc(NC(=O)Cn2c(=O)cc(C)c3c(C)nn(-c4cccc(F)c4)c32)c1 the results were miR-21 reporter -2%.
For COC(=O)c1sc(-c2ccccc2)cc1NC(=O)Nc1ccc(F)cc1 the results were miR-21 reporter 8%.
For CCOCN(C(=O)CSc1nc2ccccc2[nH]1)c1c(C)cccc1CC the results were miR-21 reporter 14%.
CC1CCN(S(=O)(=O)c2ccc3c(ccc(=O)n3CC(=O)Nc3ccc(C(C)C)cc3)c2)CC1 was read as miR-21 reporter 11%.
`CCN(CC)c1nn2c(=O)c(C(=O)NCc3ccc(F)cc3)cnc2s1` gave miR-21 reporter -10%.
For Cc1cc(C)n(-c2nc3ccccc3nc2Nc2cccc(C)c2C)n1 the results were miR-21 reporter 1%.
